Screens deposited in PubChem by National Center for Advancing Translational Sciences (NCATS).
SARS PLpro yeast: inhibitors of SARS-CoV papain-like protease in yeast; Potency, µM (top dose mostly 32.9 µM), for the others: at the top dose activity, positive = growth rescue; actives 0.19% (n = 330,000); S. cerevisiae expressing SARS-CoV PLpro, growth rescue; control for the full effect not named in the record; active means well fitted rising curve with a large enough effect; inconclusive means small, poorly fitted or top-dose-only effect; inactive means no such curve, though single readings can be large or run the other way; further: 0% is about no effect; nearly all actives have a fitted effect of over 55% in size; growth read by luminescence after 48 h
StopGo reporter: lowers the luciferase signal of an FMDV 2A StopGo reporter | Potency, µM (series often up to 57.9 µM), inactives show at the highest dose signal change, negative = less light | actives 1.2% (n = 410,000) | human cells with a luciferase reporter of 2A StopGo recoding; control for the full effect not named in the record; active = well fitted falling curve with a large enough effect; inconclusive = small, poorly fitted or top-dose-only effect; inactive = no such curve, though single readings can be large or run the other way; tested in HEK293T cells; further: on the % scale 0 is the no-effect control and ±100 the full control effect; nearly all actives have a fitted effect of over 45% in size; luciferase light after 4 h
NS1 inh: inhibitors of influenza NS1 protein function; S. cerevisiae slowed by influenza A NS1, growth recovery by OD600; Potency, µM (doses to about 46.1 µM), for inactives: top-dose activity, positive = more growth; actives 0.4% (n = 270,000); AID 2326; active means well fitted rising curve with a large enough effect; inconclusive means small, poorly fitted or top-dose-only effect; inactive means no such curve, though single readings can be large or run the other way; further: nearly all actives have a fitted effect of over 50% in size
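OD600 was taken as the measure of yeast growth restored by compound in an NS1-expressing S. cerevisiae strain. Cells had been washed out of glucose medium and diluted 1:100 into galactose -URA medium, pH 6.0.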
LASV entry inh: inhibitors of Lassa virus binding or cell entry; actives 1.2% (n = 300,000); Lassa virus pseudotype entry inhibition, cell reporter; control for the full effect not named in the record; AID 540256; Potency, µM (series often up to 37.9 µM), without a hit: top-dose activity change, negative = inhibition, most hits filed as inhibitors; active means well fitted inhibition curve with a large enough effect; inconclusive means small, poorly fitted or top-dose-only effect, or effect the other way; inactive means flat fitted curve, though single readings scatter; tested in HEK293 cells; further: on the % scale 0 is the no-effect control and ±100 the full control effect; nearly all actives have a fitted effect of over 50% in size; luciferase read-out
Cruzain inh Det: blocks cruzain activity in presence of Triton detergent | Potency, µM, for inactives: max response, negative = inhibition, most hits filed as inhibitors | purified cruzain, Z-FR-AMC fluorescence, 0.01% Triton | actives 0.43% (n = 200,000) | P25779;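 further: plate controls were neutral wells for no effect and buffer without enzyme for full effect; nearly all actives have a fitted effect of over 40% in size; top concentration of the series not given in the record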
Target sequence (P25779 123-467 limits assumed): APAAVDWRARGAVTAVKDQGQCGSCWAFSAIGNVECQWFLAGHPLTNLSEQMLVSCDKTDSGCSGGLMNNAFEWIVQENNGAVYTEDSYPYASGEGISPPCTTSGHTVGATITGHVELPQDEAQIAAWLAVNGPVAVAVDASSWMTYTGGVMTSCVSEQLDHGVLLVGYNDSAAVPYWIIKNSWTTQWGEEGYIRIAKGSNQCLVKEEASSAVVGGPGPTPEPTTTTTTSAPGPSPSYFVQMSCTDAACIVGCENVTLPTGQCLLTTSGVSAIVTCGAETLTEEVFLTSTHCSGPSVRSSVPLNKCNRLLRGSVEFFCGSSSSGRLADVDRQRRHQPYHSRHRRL
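Steps: dispense cruzain (1.5 nM final) in acetate buffer pH 5.5 with DTT and 0.01% Triton X-100; pin-transfer compounds; incubate 15 min RT; add Z-FR-AMC (2 uM final); read fluorescence every 30 s, using the 60 s intensity change.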
RE007 growth inh: less growth of the S. pombe RE007 Vpr strain; S. pombe RE007 Vpr strain, BacTiter-Glo ATP luminescence, 24 h; control for the full effect not named in the record; Potency, µM (highest dose often 92.2 µM), inactives show top-dose activity change, negative = less growth; actives 0.21% (n = 360,000); AID 651644; active = well fitted falling curve with a large enough effect; inconclusive = small, poorly fitted or top-dose-only effect; inactive = no such curve, though single readings can be large or run the other way;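 further: on the % scale 0 is the no-effect control and ±100 the full control effect; nearly all actives have a fitted effect of over 50% in size; the assay follows cell death caused by Vpr and the record does not say whether a fall means rescue or toxicity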
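Fission yeast strain RE007, carrying one chromosomally integrated HIV-1 vpr copy, was seeded at OD 0.01 in PMG+AL medium with 23 nL pinned compound. After 24 h at 30 °C and 99% humidity, viability was read by BacTiter-Glo luminescence.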
Cruzain noTriton: blocks cruzain activity in detergent-free assay; purified cruzain, Z-FR-AMC fluorescence, no detergent; Potency, µM, for inactives: max response, negative = inhibition, most hits filed as inhibitors; actives 2.3% (n = 200,000); P25779;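 further: plate controls were enzyme without inhibitor for no effect and buffer without enzyme for full effect; nearly all actives have a fitted effect of over 40% in size; top concentration of the series not given in the record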
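Purified cruzain at 1.5 nM, pre-incubated 15 min with compound at room temperature in 100 mM sodium acetate pH 5.5, 5 mM DTT, 0.00005% Triton X-100. Reaction started with 2 uM Z-FR-AMC; AMC fluorescence increase over 60 s gives rate.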
Marburg entry inh: inhibitors of Marburg virus binding or cell entry. Marburg virus pseudotyped entry inhibition, cell reporter; control for the full effect not named in the record; about a third of the inactives were read at about 46 µM. Potency, µM (doses to about 37.8 µM), without a hit: top-dose activity change, negative = inhibition, actives largely listed as inhibitors. actives 1.8% (n = 300,000); active = well fitted inhibition curve with a large enough effect; inconclusive = small, poorly fitted or top-dose-only effect, or effect the other way; inactive = flat fitted curve, though single readings scatter; tested in HEK293 cells; about a fifth of its hits are not listed in these tables; further: on the % scale 0 is the no-effect control and ±100 the full control effect; luciferase read-out
* = called active by the depositor; ? = inconclusive; · = no result given; & = joins results of further samples; [ ] = another dose, or the depositor's remark. Unless noted, the call rests on the fitted dose curve; in most records, active means well fitted curve in the direction sought with a large enough effect; inconclusive means small, poorly fitted or top-dose-only effect, or another doubt; inactive means no such curve, though single readings can be large; an effect the other way counts as inactive or inconclusive. Potency means the concentration at half of the fitted maximal effect.

canonical_smiles	SARS PLpro yeast	StopGo reporter	NS1 inh	LASV entry inh	Cruzain inh Det	RE007 growth inh	Cruzain noTriton	Marburg entry inh
Nc1cc(=O)[nH]c(SCC(=O)Nc2ccc(Cl)c(Cl)c2)n1	2%	-11%	2.5µM*	-7%	-3.5%	-1%	-1%	11%
CCOC(=O)C1=C(C)NC(=S)N(C=O)C1c1ccccc1 (stereo not given)	0%	-5%	·	-2%[46.1 µM]	·	-18%	·	-21%[46.1 µM]
COc1ccc2c(c1)O[C@@H](c1ccc3c(c1)OCO3)[C@H](OC(=O)Nc1ccc(C)c(Br)c1)C2=O	·	·	·	1%[14.3 µM]	2.0%	·	?	-12%&-12%[14.2 µM]
CC(=O)Nc1ccc(S(=O)(=O)NC2=C(N3CCN(C)CC3)C(=O)c3ccccc3C2=O)cc1	-1%	-5%	7%	·	·	-5%	·	·
O=C(NC1CCCCC1)c1cc(Nc2cccc(C(F)(F)F)c2)nc2ccccc12	·	3%	·	?	-1.6%	·	-5%	·
Cn1cc(/C=N/NC(=O)c2ccccc2O)c2ccccc21	-1%	43%[activator]	-64%	·	·	3%	·	·
O=C1NC(c2ccc(Cl)cc2)Oc2ccccc21 (stereo not given)	?	-13%	11%	·	·	-18%	·	·
Cc1cccc(N(C(=O)Cn2nnc(-c3ccc(C)o3)n2)C(C(=O)NC2CCCC2)c2ccncc2)c1 (stereo not given)	2%	-14%	-2%	-11%	·	-20%	·	-1%
COc1ccc(N/N=C(/C)c2cnnc(-c3ccccc3)n2)cc1	-27%	-2%	-19%	-1%	-15%	9%	16µM*	17%
C=C(C)CSc1nc2sc3c(c2c(=O)n1-c1ccc(C)cc1)CCN(C)C3	-1%	-2%	7%	?	·	5%	·	?
Cc1nc2ccccc2c2nc(NC(=O)C(F)(F)F)nn12	0%	5%	3%	·	·	6%	·	-9%[46.1 µM]
CCCCc1noc(-c2c(-c3ccccc3Cl)noc2C)n1	-6%	-22%	·	?	·	23%	·	2%[46.1 µM]
COc1ccc2[nH]cc(CCNC(=O)Nc3cccc(F)c3)c2c1	·	?	·	-29%[46.1 µM]	-11%	·	2%	?
COc1cc(OC)c(C2=NOC(C(=O)NCc3cccnc3)C2)cc1Cl (stereo not given)	-1%	20%	-7%	·	·	2%	·	·
Cc1nc2nc(NC(=O)CC(C)C)[nH]n2c(=O)c1Cc1ccccc1	·	-4%	·	14%[46.1 µM]	0.5%	·	4%	-9%[46.1 µM]
O=C(N/N=C/C=C/c1ccccc1)C1CC1c1ccccc1 (stereo not given)	-43%	13%	0%	0.13µM*	-12%	1%	-3%	?
CCCCOc1cccc(C(=O)NC(=S)Nc2cccc(NC(=O)c3ccccc3Cl)c2)c1	12%	-15%	10%	6%	-3.7%	15%	-17%	?
CSc1nsc(SCc2ccc(F)cc2)n1	-6%	18%	18%[9.22 µM]	-1%	-0.2%	-14%	8%	2%[46.1 µM]
O=C1CCCCc2sc(Br)c([N+](=O)[O-])c2N1	-1%	?	2%	-24%	·	-1%	·	9%[46.1 µM]
C=CCNC(=O)c1onc(CSc2ccc(C(C)C)cc2)c1C(=O)O	-10%	-17%	-7%	·	-1.9%	10%	5%	·
Cc1ccc(-n2nc3c(=O)n(CCCC(=O)N4CCC(C)CC4)nc(C)c3c2C)cc1	-2%	-24%	0%	·	·	-14%	·	·
CCc1cc2c(=O)c(-c3nc4ccccc4n3C)coc2c(CN2CCOCC2)c1O	?	-16%	?	5%	-4.5%	-13%	-5%	-10%[46.1 µM]
COc1cccc(C(=O)CC(=O)C(=O)Nc2ccc([N+](=O)[O-])cc2C)c1	0%	-23%	9%	·	·	-7%	·	·
CC(C)c1ccc(/C=C/C(=O)N2CCOCC2)cc1	-6%	63%[activator]	-4%	?	·	3%	·	?
Cc1ccc(CNC(=O)C23CN(Cc4ccccc4)CC2C(c2cccc([N+](=O)[O-])c2)=NO3)cc1 (stereo not given)	3%	22%	?	·	6.6%	0%	-29%	·
Cc1ccc(C(=O)C2=C(O)C(=O)N(CCN3CCOCC3)C2c2ccccn2)o1 (stereo not given)	0%	·	6%	·	-1.2%	·	5%	2%
Cc1cccnc1CCNC(=O)CCc1nnc(CCc2ccccc2)o1	0%	6%	4%	-4%	·	-6%	·	19%[46.1 µM]
Cc1cc(C)nc(-n2ncc3c2CC(c2ccc(C(C)C)cc2)CC3=O)n1 (stereo not given)	-40%	-18%	-24%	?	-8.5%	24%	?	-1%
C[n+]1cccc2ccc3c(c21)OC(N)=C(C#N)C3c1ccccc1 (stereo not given)	1%	-1%	2%	-15%	·	-25%	·	-7%[46.1 µM]
CCNC(=O)CCC(=O)Nc1cc(Cl)ccc1C	1%	-4%	9%	2%	0.7%	-12%	8%	15%
O=C(CN1C(=O)/C(=C\c2ccco2)SC1=S)Nc1ccc(O)cc1C(=O)O	0%	-25%	?	·	·	4%	·	·
O=C(c1ccc(=O)oc1)N1CCOCC1	2%	-18%	5%	8%	-5.5%	10%	-1%	2%&2%
O=S(=O)(c1ccc(Br)c2ccccc12)N1CCOCC1	-2%	-23%	-35%	4%	·	4%	·	-3%
Cc1ccc(C(C)C)c(OCC(=O)Nc2cccc(NC(=O)c3ccco3)c2)c1	·	-29%	·	?	-12%	·	12%	·
Cc1cc(O)c(C(C)C)cc1NC1=NS(=O)(=O)c2ccccc21	2%	4%	2%	-12%	0.0%	24%	-13%	-21%
CC1CN(S(=O)(=O)c2ccc(C(=O)Nc3nnc(-c4ccc5c(c4)CCCC5)o3)cc2)CC(C)O1 (stereo not given)	-1%	-28%	13%	·	3.9%	-3%	18%	0%
CC[C@@H](C)CN1C(=O)N[C@@H](CCc2ccccc2)C(C(C)=O)=C1C	1%	-12%	-4%	·	·	-7%	·	-18%&-18%&-18%&-18%[14.2 µM]
COCCCNC(=S)N(CCCN(C)C)Cc1cc2cc3c(cc2[nH]c1=O)OCCO3	3%	-15%	10%	·	·	5%	·	·
O=CN1CCN(C(=O)C(=O)c2cn(CC(=O)N3CCCCC3)c3ccccc23)CC1	-5%	1%	1%	·	·	-7%	·	·
CCOC(=O)c1c(S(=O)(=O)N2CCC(C(=O)Nc3ccc(F)cc3F)CC2)c(C)n(C)c1C	·	-2%	·	0%[46.1 µM]	2.6%	·	-5%	·
ON1C2CCCCC2N(O)C1c1ccccc1F (stereo not given)	-6%	-21%	9%	20%	2.5%	7%	-5%	10%
O=C1CSC2(C(=O)N(Cc3ccccc3F)c3ccccc32)N1c1ccc(F)cc1 (stereo not given)	·	?	·	-8%[46.1 µM]	-6.5%	·	-7%	·
CCNc1nc(OC)nc(N2CCC(Cc3ccccc3)CC2)n1	-11%	-24%	0%	10%	-2.1%	19%	-1%	?
COc1cc(-c2nc(-c3cccc(Cl)c3)c(-c3ccccc3)[nH]2)cc(OC)c1OC	·	-17%	·	?	-3.4%	·	18%	?
Clc1ccc2nc(-c3ccc(N4CCOCC4)cc3)c(Nc3ccccc3)n2c1	·	0%	·	?	-1.1%	·	-1%	1%[46.1 µM]
O=c1cc(CN2CCC3(CC2)OCCO3)c2c(ccc3ccccc32)o1	-11%	?	-34%	11%	-9.1%	1%	-2%	8%
CC(=O)Nc1ccc2nc(-c3ccccn3)[nH]c2c1	-1%	41%[activator]	-1%	?	-6.6%	7%	-6%	10%
CCCc1ccc2oc(C(=O)NCCN3CCCC(C(N)=O)C3)c(C)c2c1 (stereo not given)	-5%	5%	-3%	·	·	-3%	·	·
O=S(=O)(Nc1ccc(-c2ccc(N3CCCC3)nn2)cc1)c1ccc(Cl)cc1	·	8%	·	-4%[46.1 µM]	-5.8%	·	?	·
N#Cc1cc2c(nc1SCc1nc3ccccc3[nH]1)CCC2	-31%	·	-120%	·	-12%	·	-16%	2%
COc1ccc2c(CNC3CCCCCC3)c(C(=O)O)n(Cc3ccccc3F)c2c1	·	2%	·	-22%[46.1 µM]	-1.9%	·	-3%	·
O=S(=O)(Nc1ccc2nc(N3CCOCC3)sc2c1)c1ccccc1	-3%	18%	·	0%	·	0%	·	-2%
COc1cccc(NC(=O)CCNC(=O)Cn2ccc3ccccc3c2=O)c1	15%	8%&18%	-1%	5%[46.1 µM]	-1.4%&0.1%	7%	-9%&7%	?
O=C(CN1CCc2ccccc2C1)c1cccs1	2%	34%[activator]	-8%	16%	-0.8%	8%	-9%	?
Cc1ccc(N(CC(=O)Nc2ccc(Br)c(C)c2)S(=O)(=O)c2c(C)[nH]c(=O)[nH]c2=O)cc1	5%	-12%	17%	5%[46.1 µM]	·	-2%	·	27%[46.1 µM]
CCOC(=O)c1c(C)[nH]c(CCC(=O)NCc2ccc(OC)c(OC)c2)c1C	·	-7%	·	0%[46.1 µM]	3.0%	·	-4%	·
COc1ccc(C2C3=C(Nc4ncnn42)c2ccccc2CC3)cc1OC (stereo not given)	-1%	·	2%	·	-1.9%	·	-7%	·
CCC(C(=O)NC1CCCCC1)n1nc(C)c2sc3ccccc3c2c1=O (stereo not given)	·	-13%	·	18%[46.1 µM]	-5.3%	·	?	4%[46.1 µM]
O=C1C2CCCCN2C(=O)N1CCN1CCN(c2ccc([N+](=O)[O-])cc2)CC1 (stereo not given)	5%	-18%	0%	-9%	-6.0%	6%	-5%	5%
CC(C)C(=O)N1CCN(c2ccccc2NC(=O)c2cc([N+](=O)[O-])ccc2N2CCOCC2)CC1	0%	-15%	-1%	·	·	24%	·	·

Remaining list, next part
canonical_smiles	SARS PLpro yeast	StopGo reporter	NS1 inh	LASV entry inh	Cruzain inh Det	RE007 growth inh	Cruzain noTriton	Marburg entry inh
CN1CCN(c2nc(N(C)C)oc(=O)c2C#N)CC1	1%	8%	5%	3%	3.4%	-10%	0%	3%
N#CC1=C(N)Oc2cc(N)ccc2C1C1CC=CCC1 (stereo not given)	-1%	-18%	15%	-32%	-3.3%	7%	-11%	?
COc1cc(/C=N/NC(=O)COc2c(C)cc([N+](=O)[O-])cc2C)ccc1OC(=O)c1ccccc1Br	24%	-1%	28%	-14%	-4.5%	0%	10µM*	8%
Cc1ccc2c(c1)nnn2C1CCN(C(=O)C2CCCCC2)CC1	-9%	0%	-10%	-3%	1.3%	-16%	-1%	?
